# FGF22 binding – binders of recombinant human FGF22 by thermal shift | Q9HCT0 | SYPRO orange fluorescence; percent of sucrose octasulfate shift, DMSO zero | calls only at 9.99 µM | hit rate 1.5% among 340,000 | AID 651658;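 active = melting point raised past a set limit in the mean and every replicate; inconclusive = no clear call; three in four hits are not shown here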
# Target sequence (Q9HCT0 whole entry, looked up): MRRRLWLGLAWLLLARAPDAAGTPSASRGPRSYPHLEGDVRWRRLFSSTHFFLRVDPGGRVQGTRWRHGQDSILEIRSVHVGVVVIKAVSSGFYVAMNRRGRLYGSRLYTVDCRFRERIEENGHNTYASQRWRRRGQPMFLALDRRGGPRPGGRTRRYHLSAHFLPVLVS
# E coli growth – inhibitors of Escherichia coli growth. AID 1053175. hit rate 0.21% among 330,000. OD600 absorbance (no concentration beside the values). OD600, 23 h; active compounds read low;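 active = OD600 absorbance below the run mean of sample wells minus 3.6 SD, in any replicate, cut at about 0.56 in these data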;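 also: stock transfer was 300 nL into about 60 µL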
# MLL AF4-AF9 inh – blocks AF4 peptide binding to human AF9; hit rate 0.47% among 350,000; AlphaScreen, biotin-AF4 peptide binding to FLAG-AF9; P42568; inhibition, % at 10 µM;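 active = every replicate reaching a set inhibition limit, whatever the replicate mean, cut at about 25% in these data; inconclusive = mean inhibition reaches that limit but some replicates miss it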;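 also: 0% = plate neutral control median and 100% = total signal loss; the record names both 10 and 1 µM as test concentration; the first replicate is given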
# Vif TR-FRET – HIV-1 Vif–A3G interaction blockers – biochemical, TR-FRET, GST-Vif 1-94, biotin-A3G peptide, dose response retest, primary screen (AID 1117319) | hit rate 0.57% among 260,000 | inhibition, %; hits with a dose series show IC50 in µM | TR-FRET GST-Vif / biotin-A3G peptide binding; higher % means a stronger effect; test concentration not given here; strong numbers were not always called active;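 active = above the screen mean plus three standard deviations and confirmed in dose response; inconclusive = results disagree or hit not tested in dose response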;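 also: Vif residues 1-94 fused to GST binding biotinylated APOBEC3G peptide 110-148; 0% = full assay without inhibitor and 100% = GST in place of GST-Vif; retest series ran down from 100 µM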
# HNF4A DNA FP – change in binding of human HNF4 alpha to DNA; HNF4a-FITC DNA binding, fluorescence polarization, 1 h; activity change, % at 10 µM; hit rate 0.3% among 360,000; in the data active = activity change above about 30%, passing the limit was not always enough;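 also: controls were the assay level and a saturating level of protein; the project sought stronger binding though the title names inhibitors; some compounds called inactive have numbers as strong as hits; positive values seem to mean higher polarization but the record does not say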
# Target sequence (P41235 whole entry, looked up): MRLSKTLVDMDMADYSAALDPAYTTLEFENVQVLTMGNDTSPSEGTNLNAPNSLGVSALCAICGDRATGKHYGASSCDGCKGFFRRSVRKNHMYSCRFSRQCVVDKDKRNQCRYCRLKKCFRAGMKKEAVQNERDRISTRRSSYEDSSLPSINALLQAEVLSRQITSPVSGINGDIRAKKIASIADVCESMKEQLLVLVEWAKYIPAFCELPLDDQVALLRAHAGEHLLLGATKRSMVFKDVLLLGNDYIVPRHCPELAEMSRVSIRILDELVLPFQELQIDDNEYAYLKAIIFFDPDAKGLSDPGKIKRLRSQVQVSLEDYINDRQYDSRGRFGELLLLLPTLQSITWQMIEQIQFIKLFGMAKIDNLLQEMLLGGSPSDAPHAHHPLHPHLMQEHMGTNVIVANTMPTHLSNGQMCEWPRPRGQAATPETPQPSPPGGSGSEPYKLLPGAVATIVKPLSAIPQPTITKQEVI
# RanGTP-Impb inh – inhibitors of RanGTP-importin-beta interaction, primary screen, biochemical, FRET, CFP-Ran, YFP-importin-beta, homogeneous; cell-free CFP-Ran/YFP-importin-beta FRET ratio; hit rate 1.1% among 300,000; inhibition, % (test concentration not listed); AID 2216;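 active = most replicates above 15%; inconclusive = exactly half above 15%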;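 also: 0% = DMSO wells and 100% = Ran loaded with GDP instead of GTP; wells of about 40 µL received 100 nL stock; the first replicate is given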
# UCH37 DUB inh – human UCH37 deubiquitinating enzyme inhibition; purified proteasome/UCH37, Ub-AMC cleavage fluorescence; hit rate 0.33% among 330,000; Q9Y5K5; inhibition, % (no concentration beside the values);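 active = mean of two replicates above 20%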;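 also: 0% = compound-free wells with enzyme and 100% = wells lacking proteasome; stock transfer was 100 nL into about 20 µL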
# Target sequence (Q9Y5K5 whole entry, looked up): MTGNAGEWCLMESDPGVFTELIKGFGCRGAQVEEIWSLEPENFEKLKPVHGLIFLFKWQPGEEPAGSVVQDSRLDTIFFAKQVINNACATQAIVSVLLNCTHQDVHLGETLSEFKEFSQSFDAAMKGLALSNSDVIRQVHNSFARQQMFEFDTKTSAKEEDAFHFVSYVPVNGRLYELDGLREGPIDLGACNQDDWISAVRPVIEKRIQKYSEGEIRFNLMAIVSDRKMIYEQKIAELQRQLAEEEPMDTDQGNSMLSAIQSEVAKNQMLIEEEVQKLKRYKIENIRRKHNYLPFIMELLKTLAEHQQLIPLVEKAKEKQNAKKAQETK
#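 Test system – human UCH37 enzyme supplied as purified proteasome complex · Incubation – 30 min preincubation with enzyme, 25 min cleavage at room temperature · Detection – AMC fluorescence from Ub-AMC cleavage, excitation 355 nm, emission 460 nm · Benchmarks – no-proteasome wells (full inhibition) and compound-free wells (no inhibition)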
# * = called active by the depositor; i = inactive; ? = inconclusive; · = not tested or not shown; & = joins results of further samples.
SMILES,FGF22 binding,E coli growth,MLL AF4-AF9 inh,Vif TR-FRET,HNF4A DNA FP,RanGTP-Impb inh,UCH37 DUB inh
O=C(CN1C(=O)NC2(CCCC2)C1=O)Nc1ccc(F)c([N+](=O)[O-])c1,i,0.65,-14,·,-0.5,0.6,-0.2
COc1ccc(N2CCN(CC(O)COc3cc(C)cc(C)c3)CC2)cc1 (stereo unspecified),i,0.67,10,-3%,-0.1,?,2.4
O=C(CN1C(=O)NC2(CCCCCC2)C1=O)NCc1ccco1,·,0.66,·,-5%,0.6,1.9,-0.1
CC(=O)N[C@@H](Cc1c[nH]c2ccccc12)C(=O)OCC(=O)NCc1ccc2c(c1)OCO2,·,0.69,0.1,1%,6.0,-0.2,3.9
CCOC(=O)c1c(C)[nH]c(C)c1C(=O)CSc1nc2ccccc2c(=O)n1-c1ccc(F)cc1,·,0.72,8.8,11%,-1.0,-2.9,1.9
COc1cc(NC(=O)CN2CCN(c3ccccc3F)CC2)cc(OC)c1,·,0.77,·,27%,-0.1,·,0.3
C[C@H](CO)N1C[C@H](C)[C@@H](CN(C)C(=O)Nc2ccccc2)Oc2c(NC(=O)Nc3ccccc3)cccc2C1=O,i,0.76,-2.4&1.8,·,-0.1,·,-6.5
CCOc1ccc2nc(SCC(=O)N3CCN(C(=O)c4ccco4)CC3)sc2c1,·,0.68,·,0%,0.9,2.2,3.9
Cc1ccc(C)c(S(=O)(=O)N2CCCOC2CNC(=O)C(=O)NCc2ccncc2)c1 (stereo unspecified),i,0.73,-3.2,6%,1.8,-2.3,3.0
O=C(C[C@H]1CC[C@@H]2[C@H](COC[C@H](O)CN2Cc2cccc(F)c2)O1)NCc1cccc(F)c1,i,·,0.2&0.0,·,1.8,·,·
CCCc1nnc(NC(=O)CSc2nnc(-c3ccco3)n2C)s1,i,0.6,-1.6,·,2.4,?,1.4
O=C(CNS(=O)(=O)c1ccccc1)Nc1ccccc1Br,i,0.71,-0.7,3%,2.4,1.6,3.1
COCCCn1c(C)nnc1-c1cnn(-c2ccccc2)c1N,i,0.7,0.8,7%,-6.7,3.7,-51
CCc1cccc(C)c1NC(=O)C1CC=CCC1C(=O)O (stereo unspecified),i,0.69,-0.5,16%,-2.8,-2.4,-0.2
Cc1ccc(C)c(SCC(=O)OCC(=O)Nc2ncc(C(F)(F)F)cc2Cl)c1,i,0.72,-2.6,14%,-0.9,3.1,1.3
Cc1ccc(O/C=C2\OC(=O)c3ccccc32)cc1,·,0.77,·,·,1.4,1.1,5.0
Cc1ccc(S(=O)(=O)N(C)c2ccc(OC(=O)CN3C(=O)NC(C)(c4ccccc4)C3=O)cc2)cc1C (stereo unspecified),i,0.69,1.9,·,-0.9,·,5.0
O=c1oc2cc(O)ccc2cc1S(=O)(=O)c1ccccc1,i,0.69,-4.1,1%,2.4,133*,i
O=c1[nH]c(NCCO)c(N=Cc2ccccc2)c(=O)[nH]1,i,0.66,-8.9,·,0.6,164*,17
O=C(NCc1csc(-c2ccccc2)n1)c1cc(F)cc2c1OCOC2,i,0.67,8.2,24%,-0.1,4.0,1.8
O=C(NCc1ccncc1)C(=O)NCC(c1ccco1)N1CCN(c2ccc(F)cc2)CC1 (stereo unspecified),·,0.7,·,8%,5.5,1.6,4.2
COc1ccc(S(=O)(=O)N2CCCOC2CNC(=O)C(=O)NCCO)cc1 (stereo unspecified),i,·,-2.0,·,-0.6,·,·
COc1ccc(C=Nc2cccc3c(=O)[nH][nH]c(=O)c23)c2ccccc12,·,0.68,·,23%,-4.5,-8.7,-23
COc1ccc(Br)cc1S(=O)(=O)N1CCN=C1c1ccccc1,i,0.62,1.0,·,-0.9,0.6,0.6
C=CCOC(=O)Nc1nc(CCNC(=O)OCc2ccccc2)c(C(=O)O)s1,i,·,-6.1,·,3.4,·,·
COCCOC(=O)C1=C(C)NC(=O)NC1c1ccc(Cl)cc1 (stereo unspecified),·,0.69,·,3%,0.5,-1.7,3.6
COc1ccccc1Nc1ncnc2nc[nH]c12,·,0.71,·,23%,-1.5,-2.2,4.4
CCN(CC(=O)Nc1ccc(NC(C)=O)cc1)C(=O)Cc1c(Cl)cccc1Cl,i,0.72,-0.8,·,-3.4,-14,6.1
O=C1c2ccccc2-c2nccnc21,·,0.69,·,-3%,-1.0,5.2,-0.5
O=c1[nH]cc(N2CCCCCC2)c(=O)[nH]1,i,0.71,6.3,19%,-3.9,3.7,9.6
COc1ccc(NC(=O)NC2CCCc3ccccc32)c(OC)c1 (stereo unspecified),i,0.64,-1.5,·,0.2,-1.6,-0.6
O=S(=O)(/N=C(/c1ccccc1)N1CCOCC1)c1ccc(F)cc1F,i,·,-0.9,·,-2.0,·,·
Cc1cc2oc(C(=O)Nc3c(C)n(C)n(-c4ccccc4)c3=O)c(C)c2cc1Cl,i,·,1.8,-7%,1.3,-1.2,·
CCCCOc1ccc(C(=O)NCC(=O)NCCOc2ccc(C)cc2)cc1,i,0.68,-4.5,-3%,2.9,·,6.2
CC1CCc2c(sc(/N=C/c3ccco3)c2C(N)=O)C1 (stereo unspecified),i,·,-10.0,18%,-2.3,-0.2,·
Cc1cc(C)cc(N2C(=O)CC(Sc3ccccc3C(=O)O)C2=O)c1 (stereo unspecified),·,0.68,-0.7,1%,0.5,1.2,3.2
Cc1cc(C(=O)NCCC(c2ccccc2)c2ccccc2)c(C)o1,·,0.75,·,4%,1.6,?,5.4
CCCC(=O)N=C1SC2CS(=O)(=O)CC2N1c1ccc(C(C)=O)cc1 (stereo unspecified),·,0.77,·,0%,1.1,1.0,3.4
CN(CCn1ccnc1)C(=O)CC1C(=O)NCCN1Cc1ccccc1C(F)(F)F (stereo unspecified),i,0.67,-0.7,8%,2.1,1.1,1.2
CC(=O)N1N=C(c2ccccc2)CC1c1ccc(F)cc1 (stereo unspecified),i,0.7,2.9,·,1.1,-1.3,1.2
COc1ccc(C(=O)Nn2cnnc2)cc1,·,0.71,·,4%,3.9,0.1,-1.7
Cc1cc(C)cc(N2CC(O)=C(c3nc4ccccc4c(=O)[nH]3)C2=N)c1,i,0.74,-1.7,-3%,5.7,-0.6,-6.3
COc1ccc(CCNS(=O)(=O)c2ccc(-n3cnnn3)cc2)cc1OC,i,0.68,-2.9,·,-0.5,-9.6,2.0
CC(=O)c1cc2c(cc1NC(=O)c1cnc(C)cn1)OCO2,·,0.68,·,1%,2.3,0.0,-16
O=C(CCc1nnc2n(CCc3ccccc3)c(=O)c3ccccc3n12)NCCCN1CCCCC1,i,0.71,1.5,·,1.7,2.7,0.1
CC(Oc1ccc(Cl)cc1Cl)C(=O)N(Cc1ccco1)C1CCS(=O)(=O)C1 (stereo unspecified),·,0.74,·,-7%,0.6,-4.2,0.3
CCc1ccc(NC(=O)C(=O)c2cn(CC(=O)N3CCCCC3)c3ccccc23)cc1,·,0.73,·,·,-1.7,1.1,5.9
C#CCOCCOCCOCCNc1nc(N2CCN(C(=O)Cn3cc(CCCCN)nn3)CC2)nc(N2CCN(C(=O)Cn3cc(CC(C)O)nn3)CC2)n1 (stereo unspecified),i,0.72,·,29%,11,-1.5,4.0
CC(O)(CS(=O)(=O)Cc1ccccc1)c1ccccc1 (stereo unspecified),i,0.69,-1.5,2%,1.3,-2.9,6.4
CC12CC3CC(C)(C1)CC(CN)(C3)C2,·,0.74,·,6%,1.4,-1.0,1.3
COc1cccc(CCNC(=O)c2cc(COc3c(F)cccc3F)on2)c1,i,0.67,-23,·,0.0,0.8,2.3
Cc1cc(F)ccc1NC(=O)c1cc(S(=O)(=O)N2CCOCC2)cn1C,i,0.73,-1.3,·,-0.1,3.6,2.7
CC12CCC(=O)N1C(C(=O)OCC(=O)Nc1cc(S(=O)(=O)N3CCCCC3)ccc1Cl)CS2 (stereo unspecified),·,0.66,·,8%,-3.1,2.0,1.5
O=C(Cn1ccc(=O)[nH]c1=O)Nc1nccs1,i,·,-4.2,·,2.6,·,·
O=C(Nc1ccc2oc(-c3ccccc3Cl)nc2c1)c1cncc(Br)c1,·,0.7,·,-22%,0.8,?,-9.5
COc1ccc(C(=O)Nc2ccc3c(c2)n(C)c(=O)n3C)cc1OC,i,0.67,5.0,·,1.1,-1.5,2.8
Cc1ccccc1NC(=S)NCCc1ccc(S(N)(=O)=O)cc1,·,0.7,·,-9%,1.5,-0.8,5.4
Fc1ccc(NC(=S)NC2CCN(Cc3ccccc3)CC2)cc1,i,0.67,3.5,24%,-3.8,-2.9,1.1
Cc1nc(N)sc1-c1csc(NCc2ccccc2)n1,·,0.71,·,17%,7.4,2.0,2.8
Cc1c(C(=O)NCCN2CCOCC2)sc2nc(-c3ccc(F)cc3)cn12,i,0.58,-2.9,·,2.2,1.3,0.4

# A different layout for 4 compounds above.
SMILES: Cc1ccc(C)c(SCC(=O)OCC(=O)Nc2ncc(C(F)(F)F)cc2Cl)c1
- FGF22 binding: i
- E coli growth: 0.72
- MLL AF4-AF9 inh: -2.6
- Vif TR-FRET: 14%
- HNF4A DNA FP: -0.9
- RanGTP-Impb inh: 3.1
- UCH37 DUB inh: 1.3

SMILES: O=c1oc2cc(O)ccc2cc1S(=O)(=O)c1ccccc1
- FGF22 binding: i
- E coli growth: 0.69
- MLL AF4-AF9 inh: -4.1
- Vif TR-FRET: 1%
- HNF4A DNA FP: 2.4
- RanGTP-Impb inh: 133*
- UCH37 DUB inh: i

SMILES: CCOc1ccc2nc(SCC(=O)N3CCN(C(=O)c4ccco4)CC3)sc2c1
- FGF22 binding: ·
- E coli growth: 0.68
- MLL AF4-AF9 inh: ·
- Vif TR-FRET: 0%
- HNF4A DNA FP: 0.9
- RanGTP-Impb inh: 2.2
- UCH37 DUB inh: 3.9

SMILES: Fc1ccc(NC(=S)NC2CCN(Cc3ccccc3)CC2)cc1
- FGF22 binding: i
- E coli growth: 0.67
- MLL AF4-AF9 inh: 3.5
- Vif TR-FRET: 24%
- HNF4A DNA FP: -3.8
- RanGTP-Impb inh: -2.9
- UCH37 DUB inh: 1.1

# The results go on.
SMILES,FGF22 binding,E coli growth,MLL AF4-AF9 inh,Vif TR-FRET,HNF4A DNA FP,RanGTP-Impb inh,UCH37 DUB inh
O=C(O)C(CCc1ccccc1)N1CCOCC1 (stereo unspecified),i,·,-3.4,·,-1.8,·,·
Cc1nc(C)c2c(c1C(F)(F)F)-c1ccccc1C2(F)F,·,0.71,·,37%,-4.9,1.8,2.2
CCCN(C(=O)CSCC(=O)Nc1cccc(C)c1)c1c(N)n(Cc2ccccc2)c(=O)[nH]c1=O,i,0.71,-0.6,·,5.0,1.2,3.3
Cc1ccc(S(=O)(=O)N(C)C)cc1NC(=O)c1cccnc1Oc1ccccc1,i,0.66,-1.6,1%,-0.4,-4.8,-3.3
CCn1c(CNC(=O)c2cccs2)nnc1SCC(=O)NCCc1ccccc1,·,0.66,·,-2%&1%,3.1,-1.7,2.5
CC(=O)C[C@H](O)CC(=O)[C@@H]1OC(=O)[C@H](C)C/C=C\Cc2ccccc21,i,0.68,-1.2,5%,0.9,·,0.4
CC(C)OC(=O)c1ccc(NC(=O)c2cccc(-n3cnnn3)c2)cc1,i,0.66,1.7,-2%,-1.6,·,0.3
O=C(NC(=S)NCc1ccccc1)c1ccc(Br)cc1,i,0.66,-4.2,·,-0.6,-0.8,4.9
CCCCN(C(=O)c1ccc(N(C)S(=O)(=O)c2ccc(C)cc2)cc1)c1c(N)n(CC(C)C)c(=O)[nH]c1=O,i,0.71,0.7,·,-0.2,·,1.0
Cn1c(=O)oc2cc(S(=O)(=O)NCCC(=O)NC3CCCC3)ccc21,·,0.74,·,6%,-2.4,-0.1,1.4
O=C(NCc1cccs1)C1Cc2c(-c3ccc(Cl)cc3)ccnc2O1 (stereo unspecified),i,·,-2.4,·,-1.5,·,·
NNC(=O)[C@H](Cc1ccccc1)NC(=O)Nc1ccc2c(c1)OCCO2,i,0.69,-9.0,-7%,-1.4,2.1,0.8
O=C1OC2C(O)COC23OC(O)CCC13O (stereo unspecified),i,·,-4.9,·,-0.7,·,·

# Screens as filed in PubChem BioAssay.

# The list is partial. The share of hits here may be higher or lower than overall.
